Vaccinia stage: Vaccinia orthopox stage-specific inhibition | activity change (mCherry), % (test concentration not listed) | Vaccinia-infected cells, mCherry/Venus stage reporter fluorescence; hits give low values; some inactives read as strong as hits | AID 1053133 | 0.01% of 89,000 active;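 active means mCherry past -33% and 40 or more points under the early reporter, replicates agreeing; inconclusive means past -33% without that gap or agreement; tested in A549 cells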;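 further: scaled between vehicle wells and reference inhibitor wells; 23 nL library stock went into each well; one replicate is shown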
Vaccinia stage Venus: further read-out of Vaccinia stage, marked with its call; activity change (Venus), %; measured here: Venus reporter, other viral stage;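 negative = less Venus signal; first of two replicates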
An asterisk follows results filed as active; ? = inconclusive; / = not tested or not shown. The list is partial. The share of hits here may be higher or lower than overall.

SMILES	Vaccinia stage	Vaccinia stage Venus
C[C@H](CO)N1C[C@H](C)[C@@H](CN(C)Cc2ccc3c(c2)OCO3)Oc2ccc(NC(=O)Cc3cn(C)c4ccccc34)cc2C1=O	-4	-19
O=C(CCN1CCCCC1)N[C@@H]1CC[C@H](CCNS(=O)(=O)c2ccc(F)cc2)O[C@H]1CO	-3	1
O=C(Nc1ccccc1)N1C[C@H]2[C@@H](c3ccccc31)[C@H](CO)N2CC1CCCC1	-6	-5
C[C@@H]1CN([C@@H](C)CO)C(=O)c2cc(NC(=O)Cc3ccccc3)ccc2O[C@@H]1CN(C)Cc1ccc(C(=O)O)cc1	22	8
COc1ccc(C[C@H]2CCn3cc(nn3)COC[C@@H](CC(C)C)NC2=O)cc1	12	13
C[C@H](CO)N1C[C@H](C)[C@@H](CN(C)S(=O)(=O)c2ccc(Cl)cc2)OCCCC[C@H](C)Oc2ccc(NC(=O)Nc3ccccc3)cc2C1=O	-4	11
CCCNC(=O)N1C[C@@H]2[C@H](c3ccccc31)[C@@H](CO)N2Cc1cccc(OC)c1	-1	-4
C[C@H]1CCCCO[C@@H](CN(C)Cc2ccc(C(F)(F)F)cc2)[C@@H](C)CN([C@@H](C)CO)C(=O)c2cc(NC(=O)Nc3ccc4c(c3)OCO4)ccc2O1	-29	-28
CN1CCN(C(=O)C[C@@H]2C[C@H]3c4cc(NC(=O)NC5CCCCC5)ccc4O[C@H]3[C@@H](CO)O2)CC1	9	12
COc1cccc(S(=O)(=O)N(C)C[C@H]2OCc3ccccc3-c3ccccc3C(=O)N([C@H](C)CO)C[C@@H]2C)c1	?	/
O=C(Nc1ccccc1F)N1C[C@H]2[C@@H](c3ccccc31)[C@@H](CO)N2C(=O)c1ccc(F)cc1	-5	-15
C[C@@H]1CN([C@H](C)CO)C(=O)c2cccc(N(C)C)c2O[C@H]1CN(C)Cc1ccccc1	12	14
C[C@@H]1CN([C@@H](C)CO)C(=O)c2cc(C#Cc3ccccn3)cnc2O[C@H]1CN(C)C(=O)c1ccccn1	5	10
C/C=C/c1ccc([C@@H]2[C@H](CO)N(C(C)=O)[C@H]2CNC(=O)c2ccccc2)cc1	-1	6
COc1ccc([Si](C)(C)[C@H]2[C@H](CCO)O[C@@]3(C(=O)N(c4ccccc4)c4ccccc43)[C@@H]2C)cc1	?	/
C[C@@H]1CN([C@H](C)CO)C(=O)Cc2cc(NS(=O)(=O)c3ccccc3)ccc2O[C@@H]1CN(C)Cc1ccc(C(=O)Nc2ccccc2N)cc1	-4	-2
C[C@H](CO)N1C[C@H](C)[C@@H](CN(C)Cc2cccc3c2OCCCO3)OCc2cnnn2CCCC1=O	4	8
C[C@H]1CN([C@@H](C)CO)C(=O)c2cc(-c3cccnc3)cnc2O[C@H]1CN(C)C	31	6
Cc1noc(C)c1NC(=O)Nc1ccc2c(c1)CC(=O)N([C@H](C)CO)C[C@H](C)[C@H](CN(C)Cc1ccc(C(=O)O)cc1)O2	-2	19
CC(C)C#Cc1ccc2c(c1)O[C@H](CN(C)C(=O)c1ccccn1)[C@@H](C)CN([C@H](C)CO)S2(=O)=O	-7	-11
COc1ccc(NC(=O)N(C)C[C@@H]2Oc3ccc(NS(=O)(=O)c4c(C)noc4C)cc3CC(=O)N([C@@H](C)CO)C[C@H]2C)cc1	1	3
N#Cc1cccc(-c2ccc3c(c2)[C@@H]2[C@@H](CCN2S(=O)(=O)c2cccc(F)c2)[C@@H](CO)N3)c1	0	-4
c1ccc(-c2ccc(C3[C@H]4CNC[C@@H]3N4Cc3cccc(-c4ccncc4)c3)cc2)cc1 (some centres undefined)	0	1
C[C@@H]1CN([C@@H](C)CO)C(=O)c2cc(C#CCN(C)C)cnc2O[C@@H]1CN(C)C(=O)Nc1cccc(F)c1	2	-8
O=C(C[C@H]1C[C@@H]2c3cc(NC(=O)c4ccc5c(c4)OCO5)ccc3O[C@@H]2[C@H](CO)O1)NCc1cccc(F)c1	6	6

Part of the list above, with two lines to a compound:
Each structure is followed by: Vaccinia stage	Vaccinia stage Venus
C/C=C/c1ccc([C@@H]2[C@H](CO)N(C(C)=O)[C@H]2CNC(=O)c2ccccc2)cc1
→ -1	6
COc1ccc(C[C@H]2CCn3cc(nn3)COC[C@@H](CC(C)C)NC2=O)cc1
→ 12	13
C[C@@H]1CN([C@H](C)CO)C(=O)c2cccc(N(C)C)c2O[C@H]1CN(C)Cc1ccccc1
→ 12	14
O=C(CCN1CCCCC1)N[C@@H]1CC[C@H](CCNS(=O)(=O)c2ccc(F)cc2)O[C@H]1CO
→ -3	1
c1ccc(-c2ccc(C3[C@H]4CNC[C@@H]3N4Cc3cccc(-c4ccncc4)c3)cc2)cc1 (some centres undefined)
→ 0	1

(list continues)
SMILES	Vaccinia stage	Vaccinia stage Venus
Cc1noc(C)c1NC(=O)Nc1ccc2c(c1)C(=O)N([C@@H](C)CO)C[C@@H](C)[C@@H](CN(C)S(=O)(=O)c1cccs1)OCCCC[C@@H](C)O2	12	2
COCC(=O)Nc1ccc2c(c1)[C@@H]1C[C@H](CC(=O)N[C@H](C)c3ccccc3)O[C@@H](CO)[C@@H]1O2	14	11
C[C@@H]1CN([C@@H](C)CO)C(=O)c2cccc(NS(=O)(=O)c3ccc(F)cc3)c2O[C@H]1CN(C)Cc1ccc(C(=O)Nc2ccccc2N)cc1	4	0
COc1cccc(NC(=O)N(C)C[C@H]2Oc3ncc(C#Cc4ccc(F)cc4)cc3C(=O)N([C@@H](C)CO)C[C@@H]2C)c1	-19	-23
C[C@H](CO)N1C[C@H](C)[C@@H](CN(C)S(=O)(=O)c2cn(C)cn2)OCCCC[C@H](C)Oc2ccc(NC(=O)CCCN(C)C)cc2C1=O	16	7
CCCNC(=O)N(C)C[C@@H]1Oc2ncc(C#C[C@H](C)O)cc2C(=O)N([C@H](C)CO)C[C@@H]1C	7	1
COc1ccc(-c2ccc3c(c2)O[C@@H](CN(C)C(C)=O)[C@H](C)CN([C@H](C)CO)S3(=O)=O)cc1	12	8
C[C@H]1CN([C@@H](C)CO)C(=O)c2cc(NC(=O)Nc3cccc4ccccc34)ccc2O[C@@H]1CN(C)Cc1ccc(C(=O)Nc2ccccc2N)cc1	29	10
C/C=C/c1ccc([C@H]2[C@H](CO)N(C(=O)c3cnccn3)C23CN(C(=O)CC)C3)cc1	1	0
C[C@H](CO)N1C[C@H](C)[C@@H](CN(C)Cc2ccc3c(c2)OCO3)Oc2ccc(NC(=O)Nc3ccc4c(c3)OCO4)cc2C1=O	2	4
CO[C@H]1CC[C@@H]2CCOc3ccc(C#N)cc3C(=O)N(C)C[C@@H](OC)[C@@H](C)C(=O)N(C)C[C@@H]1O2	31	24
C[C@H](CO)N1C[C@H](C)[C@H](CN(C)Cc2ccc(C(F)(F)F)cc2)Oc2c(cccc2N(C)C)C1=O	-13	-7
C[C@H]1CN([C@@H](C)CO)C(=O)c2cccc(NC(=O)Nc3cccc4ccccc34)c2O[C@H]1CN(C)Cc1ccc(Oc2ccccc2)cc1	-23	-9
C[C@@H]1CN([C@H](C)CO)C(=O)c2c(c3ccccc3n2C)-c2ccccc2CO[C@@H]1CN(C)S(=O)(=O)c1cccc(C#N)c1	?	/
CC(C)NC(=O)Nc1cccc2c1O[C@@H](CN(C)C(=O)Nc1ccc3c(c1)OCO3)[C@@H](C)CN([C@H](C)CO)C2=O	-1	0
CCCC#Cc1ccc([C@H]2[C@H](CO)N3C(=O)CN(C(=O)Nc4ccc(F)cc4)C[C@@H]23)cc1	-16	-7
CO[C@@H]1CN(C)C(=O)c2ccc(NC(=O)Nc3cc(F)ccc3F)cc2OC[C@@H](C)N(C(=O)c2ccccn2)C[C@H]1C	-5	-4
C[C@@H]1CN([C@@H](C)CO)C(=O)c2cc(C#CC3(O)CCCC3)cnc2O[C@@H]1CN(C)C(=O)C1CCC1	24	13
O=C(Nc1ccc(-c2ccccc2)cc1)[C@H]1[C@H](CO)[C@H]2Cn3c(cccc3=O)[C@@H]1N2Cc1cccnc1	-6	-3
C[C@H]1CN([C@@H](C)CO)C(=O)c2cc(C#CC3CCCCC3)cnc2O[C@H]1CN(C)Cc1cccnc1	-11	-9
O=C(C[C@H]1CC[C@H]2[C@@H](COC[C@@H](O)CN2C(=O)c2ccccc2F)O1)NCc1ccc(-c2ccccc2)cc1	-26	-17
CC(C)NC(=O)N(C)C[C@H]1Oc2c(NC(=O)Nc3ccc(F)cc3)cccc2C(=O)N([C@@H](C)CO)C[C@@H]1C	12	5
O=C(C[C@H]1C[C@@H]2c3cc(NC(=O)c4ccc5c(c4)OCO5)ccc3O[C@@H]2[C@H](CO)O1)NCc1ccccn1	13	12
CCS(=O)(=O)Nc1ccc2c(c1)C(=O)N(C)C[C@H](OC)[C@H](C)CN(CC1CCCCC1)[C@@H](C)CO2	-2	-6
O=C(C[C@@H]1CC[C@@H]2[C@H](COC[C@H](O)CN2C(=O)c2ccccc2F)O1)NCc1ccc(F)cc1	11	6

Further results.
SMILES	Vaccinia stage	Vaccinia stage Venus
C[C@@H]1CN([C@@H](C)CO)S(=O)(=O)c2ccc(-c3cccc(F)c3)cc2O[C@H]1CN(C)C(=O)c1cccc(F)c1	?	/
CN1C(=O)c2cc(NC(=O)c3ccc(Cl)cc3)ccc2OC[C@@H]2O[C@@H](CC(=O)NCc3cccc(F)c3)CC[C@H]21	?	/
C[C@@H]1CN([C@@H](C)CO)C(=O)c2cc(NC(=O)CCC(F)(F)F)ccc2O[C@@H]1CN(C)S(=O)(=O)c1ccccc1	-7	0
CO[C@@H]1CN(C)C(=O)c2ccc(NC(=O)C3CCC3)cc2OC[C@H](C)N(Cc2cccnc2)C[C@H]1C	7	15
Cc1ccc(-c2cnc3c(c2)C(=O)N([C@@H](C)CO)C[C@@H](C)[C@H](CN(C)Cc2ccccc2F)O3)cc1	?	/
CC(C)[C@@H](C)NC(=O)N(C)C[C@H]1OCc2ccccc2-c2c(n(C)c3ccccc23)C(=O)N([C@H](C)CO)C[C@H]1C	18	9
O=C(C1=C[C@@H](c2ccc3c(c2)Cc2ccccc2-3)C[C@@H](OCCCCO)O1)N1CCCCC1	18	10
CC(C)N(C[C@H]1N[C@H](CO)[C@H]1c1ccccc1)S(=O)(=O)c1ccccc1	-18	-8
N#Cc1cccc(-c2ccc(C3[C@H]4CNC[C@@H]3N4Cc3cc(F)ccc3F)cc2)c1 (some centres undefined)	?	2
C[C@@H]1CN([C@H](C)CO)C(=O)c2cc(-c3ccc(F)cc3)cnc2O[C@H]1CN(C)C(=O)Cc1ccccc1	-7	-7
O=C(C[C@H]1C[C@@H]2c3cc(NC(=O)Nc4ccccc4)ccc3O[C@@H]2[C@@H](CO)O1)NC1CCCCC1	13	6
C[C@H](CO)N1C[C@H](C)[C@@H](CN(C)Cc2ccc(C(F)(F)F)cc2)Oc2ccc(NC(=O)Cc3ccccc3)cc2CC1=O	?	/
CCCC#Cc1cnc2c(c1)C(=O)N([C@@H](C)CO)C[C@H](C)[C@@H](CN(C)C(=O)c1cnccn1)O2	8	2
CC(C)CC#Cc1ccc2c(c1)O[C@@H](CN(C)C(=O)c1ccccn1)[C@H](C)CN([C@@H](C)CO)S2(=O)=O	-7	-10
COc1ccc2c3c(n(C)c2c1)[C@H](CO)N(Cc1cccc(Cl)c1)CC31CN(C(=O)C2CC2)C1	5	2
C[C@@H]1CN([C@@H](C)CO)C(=O)CCCn2cc(nn2)CO[C@H]1CN(C)C(=O)Nc1ccc2c(c1)OCO2	5	5
C[C@@H]1CCCCO[C@H](CN(C)C(=O)Nc2ccccc2)[C@H](C)CN([C@H](C)CO)C(=O)c2cc(NC(=O)c3ccccc3)ccc2O1	-11	-12
C[C@H]1CN([C@@H](C)CO)C(=O)CCCn2cc(nn2)CO[C@@H]1CN(C)Cc1ccc2c(c1)OCO2	17	10
COc1cccc(CNC(=O)C[C@@H]2CC[C@H](NC(C)=O)[C@H](CO)O2)c1	-2	-3
O=C(c1ccccc1)N1CC(=O)N2[C@H](C1)[C@H](c1ccc(-c3ccccc3)cc1)[C@@H]2CO	1	10
C[C@H](CO)N1C[C@H](C)[C@H](CN(C)S(=O)(=O)c2ccc(-n3cccn3)cc2)OCc2cnnn2CCCC1=O	8	8
COc1ccc(NC(=O)N2C[C@H]3[C@@H](c4ccccc42)[C@H](CO)N3C(=O)C2CCCCC2)cc1	8	14
COc1cccc(C#Cc2cnc3c(c2)C(=O)N([C@H](C)CO)C[C@H](C)[C@@H](CN(C)C)O3)c1	-19	-12
COc1cccc(-c2ccc([C@@H]3[C@@H](CO)N4C(=O)CN(C(=O)c5ccncc5)C[C@@H]34)cc2)c1	-4	-4

One compound at a time (already shown). Order of screens: Vaccinia stage	Vaccinia stage Venus
O=C(C[C@@H]1CC[C@@H]2[C@H](COC[C@H](O)CN2C(=O)c2ccccc2F)O1)NCc1ccc(F)cc1 is entered as 11	6
COc1cccc(CNC(=O)C[C@@H]2CC[C@H](NC(C)=O)[C@H](CO)O2)c1 is entered as -2	-3
C[C@H]1CN([C@@H](C)CO)C(=O)CCCn2cc(nn2)CO[C@@H]1CN(C)Cc1ccc2c(c1)OCO2 is entered as 17	10
CO[C@@H]1CN(C)C(=O)c2ccc(NC(=O)C3CCC3)cc2OC[C@H](C)N(Cc2cccnc2)C[C@H]1C is entered as 7	15
CCCNC(=O)N(C)C[C@@H]1Oc2ncc(C#C[C@H](C)O)cc2C(=O)N([C@H](C)CO)C[C@@H]1C is entered as 7	1
